KSHV LANA nucl: LANA-nucleosome interaction inhibition; FITC-LANA1-23 / chicken nucleosome fluorescence polarization; active compounds read low; z-score (test concentration not listed); 0.3% of 51,000 active; AID 720717;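 active = both repeat wells score below -2 in polarization z-score versus plate sample wells, excluding overly bright wells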;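 note: 100 nL library stock added to about 30 µL; numbers are from one replicate; some results filed as inactive read as strong as hits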
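Material: Purified chicken nucleosomes with FITC-labelled LANA N-terminal peptide (1-23) | Reagent: 50 nM FITC-LANA1-23 probe | Medium: TEN-BT buffer, pH 7.5 | Times: 10–45 min incubation at room temperature | Detection: Fluorescence polarization | Replication: Duplicates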
Ab BasE inh: blocks the Acinetobacter baumannii siderophore enzyme BasE. purified BasE, fluorescence polarization binding displacement. 0.1% of 84,000 active. inhibition, % (no concentration beside the values);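 active = both replicates above 25% with normal brightness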;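 note: 0% = negative plate control signal and 100% = positive plate control signal; stock transfer was 100 nL into about 30 µL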
An asterisk follows results filed as active. These rows are one share of the data; the hit share may differ from the screen's.

Start of the data: the first 6 records, ahead of the listing:
Results for O=S(=O)(c1ccc2ccccc2c1)N1CC=C(c2ccccc2)CC1 ?
KSHV LANA nucl: 0.1

How did Cc1ccc(N2CC(C(=O)N(Cc3ccccc3)c3ccccn3)CC2=O)cc1 (stereo not given) do in these assays?
KSHV LANA nucl: -0.44; Ab BasE inh: 0.7

How did Fc1ccccc1-n1ncc2c1ncn1nc(-c3ccccc3)nc21 do in these assays?
KSHV LANA nucl: -1.5; Ab BasE inh: 0.7

What do the screens show for `O=C(OCc1ccccc1)c1cccnc1`?
Ab BasE inh: -1.3

What do the screens show for `CC1c2cccn2CCN1C(=O)NC1CCCCC1` (stereo not given)?
KSHV LANA nucl: 0.24; Ab BasE inh: 2.5

Results for Cn1nc(C(=O)N2CCCSC2=Nc2ccccc2)c2ccccc2c1=O ?
Ab BasE inh: -1.1

All compounds of this part, from the first entry:
Results for O=S(=O)(c1ccc2ccccc2c1)N1CC=C(c2ccccc2)CC1 ?
KSHV LANA nucl: 0.1

How did Cc1ccc(N2CC(C(=O)N(Cc3ccccc3)c3ccccn3)CC2=O)cc1 (stereo not given) do in these assays?
KSHV LANA nucl: -0.44; Ab BasE inh: 0.7

How did Fc1ccccc1-n1ncc2c1ncn1nc(-c3ccccc3)nc21 do in these assays?
KSHV LANA nucl: -1.5; Ab BasE inh: 0.7

What do the screens show for `O=C(OCc1ccccc1)c1cccnc1`?
Ab BasE inh: -1.3

What do the screens show for `CC1c2cccn2CCN1C(=O)NC1CCCCC1` (stereo not given)?
KSHV LANA nucl: 0.24; Ab BasE inh: 2.5

Results for Cn1nc(C(=O)N2CCCSC2=Nc2ccccc2)c2ccccc2c1=O ?
Ab BasE inh: -1.1

Results for Cc1ccc(Cn2c(N(C)C)nc3c2c(=O)[nH]c(=O)n3C)cc1 ?
KSHV LANA nucl: 0.45; Ab BasE inh: 0.3

Results for O=C(OCCOc1ccccc1)c1cccc(OC(F)F)c1 ?
Ab BasE inh: 3.6

How did CC(C)=CC1C(C(=O)NCCOc2ccccc2)C1(C)C (stereo not given) do in these assays?
KSHV LANA nucl: -0.93; Ab BasE inh: 0.5

What do the screens show for `O=C(Nc1ccccc1)c1cc2sccc2n1Cc1ccccc1`?
KSHV LANA nucl: 0.25; Ab BasE inh: 3.1

How did FC(F)(F)c1ccccc1NNC(=S)NCC1CCCO1 (stereo not given) do in these assays?
Ab BasE inh: 1.8

How did N#Cc1cccc(NC(=O)Nc2cccn(Cc3ccccc3)c2=O)c1 do in these assays?
KSHV LANA nucl: -0.93; Ab BasE inh: -1.3

How did Cc1csc2sc(COC(=O)Nc3ccccc3)c(C)c12 do in these assays?
Ab BasE inh: 0.7

What do the screens show for `COc1ccc2c(c1)CCc1c-2nc2ccccc2c1N1CCOCC1`?
KSHV LANA nucl: -0.045; Ab BasE inh: -1.9

How did NNc1nc(NN)c2c3c(sc2n1)CCCCC3 do in these assays?
KSHV LANA nucl: 1.2; Ab BasE inh: 0.8

Results for CC(=O)Nc1sc(C)c(C)c1C(=O)OCn1nnc2ccccc2c1=O ?
Ab BasE inh: 1.2

How did CCOC(=O)CC1C(=O)NCCN1C(=O)Nc1ccccc1 (stereo not given) do in these assays?
KSHV LANA nucl: -2.1; Ab BasE inh: 0.1

Results for O=C1CCC2=C(CCCC2=O)N1 ?
KSHV LANA nucl: -0.33; Ab BasE inh: 1.2

What do the screens show for `CN(CC1COc2ccccc2O1)S(=O)(=O)c1ccc2c(c1)CCCC(=O)N2` (stereo not given)?
Ab BasE inh: -0.4

What do the screens show for `CCCC1c2cccn2CCN1C(=O)Nc1ccccc1` (stereo not given)?
KSHV LANA nucl: 0.2; Ab BasE inh: -1.4

How did COc1ccccc1C(=O)/C=C1\NC(=O)CS1 do in these assays?
Ab BasE inh: -0.6

How did c1ccc(CN2CCN(c3cccc4[nH]ccc34)CC2)cc1 do in these assays?
KSHV LANA nucl: 0.53

Results for CN(C)c1ccc(/C=C(\C#N)C(N)=O)cc1 ?
Ab BasE inh: -8.0

What do the screens show for `CCOc1cc(C(=O)O)cc(Cl)c1O`?
Ab BasE inh: 0.9

How did Cc1noc(C)c1CC(=O)O do in these assays?
Ab BasE inh: 0.2

Results for CC(=O)Nc1ccc(S(=O)(=O)N(C)CC(=O)OCc2cc(=O)oc3cc(O)ccc23)cc1 ?
Ab BasE inh: -0.2

What do the screens show for `CCOC(=O)C1CCN(C(=O)COC(=O)Cc2ccsc2)CC1`?
Ab BasE inh: -0.1

Results for O=C(COc1cccc(-n2cnnn2)c1)N1CCc2ccccc2C1 ?
Ab BasE inh: -0.1

What do the screens show for `O=S(=O)(c1ccc(Cl)cc1)N1CCn2c1nc1ccccc12`?
KSHV LANA nucl: -1.1; Ab BasE inh: -1.9

What do the screens show for `O=C(OCCCCN1C(=O)c2ccccc2C1=O)C1=NN(c2ccccc2)C(=O)CC1`?
Ab BasE inh: -6.0

Results for c1ccc2c(c1)OC1c3ccccc3OC3c4ccccc4OC2N31 (stereo not given) ?
KSHV LANA nucl: 0.11; Ab BasE inh: -0.6

What do the screens show for `c1ccc(CSc2nnc3sc4ccccc4n23)cc1`?
KSHV LANA nucl: -0.14; Ab BasE inh: 0.0

What do the screens show for `CCOC(=O)c1cc(CC)sc1Nc1nc2ccccc2nc1N1CCOCC1`?
Ab BasE inh: 3.0

Results for COc1cc(/C=N/OCC(=O)NC2CCCCC2)ccc1OC(F)F ?
Ab BasE inh: 1.6

Results for COc1cccc(CNC(=O)CCC2=NS(=O)(=O)c3ccc(C)cc3N2)c1 ?
Ab BasE inh: -1.0

Results for Cc1[nH]c2ccccc2c1CN1CCN(c2ccccn2)CC1 ?
KSHV LANA nucl: -0.84

How did Cc1c(C#N)c(N)n(C2CCCCC2)c1C do in these assays?
Ab BasE inh: 1.5

What do the screens show for `COc1cccc(C(=O)CN2C(=O)C(C)(C)Oc3ccc(C(=O)N4CCOCC4)cc32)c1`?
KSHV LANA nucl: -0.89; Ab BasE inh: -0.8

Results for O=C(CN1CCCC1)N1N=C(c2cccs2)CC1c1cccs1 (stereo not given) ?
KSHV LANA nucl: 0.039; Ab BasE inh: -1.9

Results for O=S(=O)(c1ccccc1)N1CCC(Oc2ccc(-n3cnnn3)cc2)CC1 ?
KSHV LANA nucl: -0.76; Ab BasE inh: -1.6

How did Cc1ccccc1OCCCC(=O)NCc1ccco1 do in these assays?
KSHV LANA nucl: 1.3; Ab BasE inh: -1.1

Results for O=C(CSc1ncn(-c2ccccc2)n1)c1ccc(Cl)cc1 ?
KSHV LANA nucl: -0.59; Ab BasE inh: -0.4

How did CC(Sc1nnc(-c2ccncc2)n1C)c1ccccc1Cl (stereo not given) do in these assays?
Ab BasE inh: -1.9

How did CCOc1cc(Br)c(N2C(=NC(C)=O)SC3CS(=O)(=O)CC32)cc1OCC (stereo not given) do in these assays?
KSHV LANA nucl: -0.59; Ab BasE inh: 0.1

Results for CCCCN(CCCC)CCC(O)c1cc2c(Cl)cc(Cl)cc2c2cc(C(F)(F)F)ccc12 (stereo not given) ?
KSHV LANA nucl: -0.47; Ab BasE inh: -0.2

How did CCOC(=O)c1cc(-c2csc(-c3ccc(Cl)cc3)n2)on1 do in these assays?
KSHV LANA nucl: -1.3; Ab BasE inh: 1.9

Results for CC1CN(CCOc2ccccc2)CC(C)O1 (stereo not given) ?
KSHV LANA nucl: 2.3; Ab BasE inh: -1.5

Results for O=C(NCc1ccccc1)C1CCN(C(=O)N2CCOc3ccccc32)CC1 ?
KSHV LANA nucl: -0.57; Ab BasE inh: 1.3

What do the screens show for `CC(=O)N[C@H]1[C@H](Oc2nc3ccccc3o2)O[C@H](CO)[C@@H](O)[C@@H]1O`?
KSHV LANA nucl: -0.43; Ab BasE inh: -1.4

What do the screens show for `CC1(C)CC(=O)C=C(NC(=O)Nc2ccccc2)C1`?
Ab BasE inh: -1.7

Results for O=C(O)CCc1nnc2n(Cc3ccccc3Cl)c(=O)c3ccccc3n12 ?
KSHV LANA nucl: 1.1; Ab BasE inh: -1.7

Results for Nc1nc(SCC(=O)NCC2CCCO2)n[nH]1 (stereo not given) ?
Ab BasE inh: 2.6

How did CC(=O)Nc1cccc(OCC(=O)N2N=C(c3ccc(Cl)cc3)CC2c2ccco2)c1 (stereo not given) do in these assays?
Ab BasE inh: 0.7

What do the screens show for `COc1ccc(-c2nnc(SC(C)c3nnc(-c4cccs4)o3)o2)cc1` (stereo not given)?
Ab BasE inh: -1.9

How did Oc1ccc(C(=S)N2CCOCC2)cc1 do in these assays?
KSHV LANA nucl: 2.3; Ab BasE inh: 2.9

What do the screens show for `O=C(NC1CCCCC1)c1ccc(Cl)cc1`?
KSHV LANA nucl: -0.41; Ab BasE inh: -0.1

What do the screens show for `CC(=O)NN1C(=O)/C(=C\c2ccc(I)o2)SC1=S`?
KSHV LANA nucl: -0.39; Ab BasE inh: 4.3

Results for C=CCNc1nc(OC)nc(OC)n1 ?
KSHV LANA nucl: 0.043; Ab BasE inh: 0.3

Results for COCCOC(=O)c1c(NC(=O)CNCc2ccco2)sc(C(N)=O)c1C ?
Ab BasE inh: -4.2

What do the screens show for `Cc1ccc2c(CC(=O)NC3=NCCS3)coc2c1`?
Ab BasE inh: 1.8

What do the screens show for `CCc1nc2sc3c(O)cc(=O)[nH]c3c2cc1C`?
KSHV LANA nucl: 1.7; Ab BasE inh: -0.8

What do the screens show for `Cc1csc(=O)n1CC(=O)Oc1ccc(Oc2ccccc2)cc1`?
Ab BasE inh: -0.7

How did COc1cccc(-c2nn(Cc3ccccc3)cc2CO)c1 do in these assays?
Ab BasE inh: -0.4

Results for COc1ccccc1Nc1nnc(SCc2ncc(-c3ccccc3)o2)s1 ?
Ab BasE inh: -0.3

What do the screens show for `CCc1cc(=S)n2c([nH]c3ccccc32)c1C#N`?
Ab BasE inh: 1.0

Results for CCN1/C(=C\C=C2\C(=O)N(C)C(=S)N2C)Sc2ccccc21 ?
Ab BasE inh: -4.8

How did O=C(O)CCCn1cc(NC(=O)c2cccs2)cn1 do in these assays?
KSHV LANA nucl: -0.82; Ab BasE inh: 1.6

What do the screens show for `N#CC(C#N)=CC1=C(N2CCCC2)CCCC1`?
KSHV LANA nucl: -0.41; Ab BasE inh: 1.3

Results for CCOC(=O)c1ccc(N=C2S/C(=C\c3cc4c(cc3OC)OCO4)C(=O)N2C)cc1 ?
KSHV LANA nucl: 0.21; Ab BasE inh: -0.4

What do the screens show for `CC(=O)N1C(=S)NC(=O)/C1=C\c1c(Cl)cccc1Cl`?
Ab BasE inh: 0.1

How did CN(CC(=O)N1CCCCC1)S(=O)(=O)c1ccc2c(c1)CCCC(=O)N2 do in these assays?
Ab BasE inh: 0.1

What do the screens show for `CCN(CC)C(=O)c1cc(-c2ccccc2)on1`?
KSHV LANA nucl: 2.4; Ab BasE inh: -2.1

What do the screens show for `Clc1nc2ccccc2n2cnnc12`?
KSHV LANA nucl: 0.0025; Ab BasE inh: -0.6

How did CCOC(=O)c1c(C)[nH]c(C)c1C(=O)COc1ccc(C#N)cc1 do in these assays?
Ab BasE inh: 1.0

How did Cc1ccc(NS(=O)(=O)c2ccccc2)cc1 do in these assays?
Ab BasE inh: 2.1

How did COc1ccc(C(=O)CSc2nc(=O)n3cc(C)ccc3n2)cc1 do in these assays?
KSHV LANA nucl: -0.17; Ab BasE inh: -0.1

Results for O=c1c(-c2ccc3ccccc3n2)coc2cc(O)ccc12 ?
Ab BasE inh: -1.2

What do the screens show for `O=C(O)c1ccc(NCCC(=O)c2ccccc2)cc1`?
KSHV LANA nucl: 0.13; Ab BasE inh: 4.0

Results for O=C(Cn1ccccc1=O)Nc1ccc2c(c1)OC1(CCCC1)O2 ?
Ab BasE inh: 0.9

What do the screens show for `CCOc1nc2c(c(-c3ccco3)c1C#N)Cc1ccccc1-2`?
Ab BasE inh: -1.7

Grouped by structure: those above containing a CF3 group
How did FC(F)(F)c1ccccc1NNC(=S)NCC1CCCO1 (stereo not given) do in these assays?
Ab BasE inh: 1.8

Results for CCCCN(CCCC)CCC(O)c1cc2c(Cl)cc(Cl)cc2c2cc(C(F)(F)F)ccc12 (stereo not given) ?
KSHV LANA nucl: -0.47; Ab BasE inh: -0.2

(continued)
How did O=C(Cc1ccc(S(=O)(=O)N2CCOCC2)s1)Nc1ccc2ccccc2c1 do in these assays?
Ab BasE inh: 0.4

Results for Cc1ccc(CS(=O)(=O)c2ccc(C(F)(F)F)cn2)cc1 ?
KSHV LANA nucl: 0.075; Ab BasE inh: 1.4

Results for O=C(OCc1cnc(Cl)s1)c1ccccc1Cl ?
KSHV LANA nucl: -0.28

What do the screens show for `FC(F)(F)COc1ccc(OCC(F)(F)F)c(-c2ccn[nH]2)c1`?
Ab BasE inh: -0.7

What do the screens show for `O=C(c1cccc(C(=O)N2CCc3ccccc32)c1)N1CCc2ccccc21`?
Ab BasE inh: -0.3

Results for CN(C)c1ccc(NC(=O)CSc2nc3ccncc3[nH]2)cc1 ?
KSHV LANA nucl: -0.9; Ab BasE inh: 1.7

What do the screens show for `Cc1cnc(C(=O)Nc2ccc(OC(F)F)c(Cl)c2)cn1`?
Ab BasE inh: 0.5

Results for CO/N=C1\CC(C)(C)Cc2c(-c3ccn(C(C)=O)n3)sc(SC)c21 ?
KSHV LANA nucl: -1.1; Ab BasE inh: 1.4

What do the screens show for `CCSc1nnc(NC(=O)C(Cc2ccccc2)NS(=O)(=O)c2cccc3nsnc23)s1` (stereo not given)?
KSHV LANA nucl: -0.63; Ab BasE inh: 2.2

How did COc1c2ccoc2nc2c(OC)c(OC(C)=O)ccc12 do in these assays?
KSHV LANA nucl: -1.3; Ab BasE inh: -1.4

How did O=C(NCc1ccccc1)C1CCCN(C(=O)Nc2ccccc2)C1 (stereo not given) do in these assays?
KSHV LANA nucl: -1.7; Ab BasE inh: 1.8

How did Cc1cccc[n+]1C/C=C\c1ccccc1 do in these assays?
Ab BasE inh: -5.0

What do the screens show for `CCOC(=O)c1cc(-c2ccc(OC)c(S(=O)(=O)Nc3ccc(OC)cc3)c2)on1`?
KSHV LANA nucl: 0.97; Ab BasE inh: -5.5

Screening results from PubChem BioAssay.
